Screening data as filed in PubChem.
Bfl-1 A1 inh = inhibitors of the anti-apoptotic protein A1, read as caspase activation | hit rate 0.066% among 330,000 | MEF A1-2A-BIM cells, Caspase-Glo 3/7 luminescence, 3 h; percent of clofoctol response, vehicle zero | caspase activation, % (no concentration beside the values);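 active = over half of replicate activation scores above 10%, or exactly half above 10 with the replicate mean above 10; inconclusive = replicate mean below 10 yet half the replicates above 10; inactive = over half of replicates below 10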;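 note: wells of about 30 µL received 50 nL stock; many hits fall short of the cut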
rRNA inh HTS = inhibitors of bacterial rRNA selective over humanized ribosomes; hit rate 1.6% among 350,000; AID 720706; GFP signal change (wild-type ribosome), % (test concentration not listed); E. coli WT GFP vs humanized-ribosome RFP mutants, fluorescence, 24 h; hits give low values; DMSO median 0, no signal -100;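 active = significant combined selectivity score with lowered wild-type GFP, culture density cut under 30%, mutant RFP and density less affected; inactive = any of these conditions unmet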; note: one replicate is shown; some compounds called inactive have numbers as strong as hits
E coli growth = E. coli growth inhibition | Escherichia coli growth, OD600, 23 h; hits give low values | OD600 absorbance (concentration not given with the values) | hit rate 0.21% among 330,000 | AID 1053175;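 active = OD600 absorbance below the run mean of sample wells minus 3.6 SD, in any replicate, cut at about 0.56 in these data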;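 note: stock transfer was 300 nL into about 60 µL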
T cruzi repl = blocks replication of Trypanosoma cruzi; T. cruzi beta-gal in NIH3T3, luminescence, 90 h; inhibition, % (test concentration not listed); hit rate 1.4% among 300,000; AID 1885;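 active = mean inhibition across valid replicates above about 55%, limit read from the data; inconclusive = mean below that limit but half or more replicates reach it; inactive = mean below it, under half of replicates reach it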;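 note: signal also drops with host cell toxicity which is not excluded here; 0% = plate median of DMSO wells and 100% = zero luminescence signal; higher percent means less beta-gal luminescence so fewer parasites; stock transfer was 50 nL into about 50 µL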
AF4-AF9 inh = MLL-AF4/AF9 protein interaction inhibition. P42568. AlphaScreen, biotin-AF4 peptide binding to FLAG-AF9. inhibition, % at 10 µM. hit rate 0.47% among 350,000;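 active = every replicate reaching a set inhibition limit, whatever the replicate mean, cut at about 25% in these data; inconclusive = mean inhibition reaches that limit but some replicates miss it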;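 note: 0% = plate neutral control median and 100% = total signal loss; the record names both 10 and 1 µM as test concentration; the first replicate is given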
Target sequence (P42568 whole entry, looked up): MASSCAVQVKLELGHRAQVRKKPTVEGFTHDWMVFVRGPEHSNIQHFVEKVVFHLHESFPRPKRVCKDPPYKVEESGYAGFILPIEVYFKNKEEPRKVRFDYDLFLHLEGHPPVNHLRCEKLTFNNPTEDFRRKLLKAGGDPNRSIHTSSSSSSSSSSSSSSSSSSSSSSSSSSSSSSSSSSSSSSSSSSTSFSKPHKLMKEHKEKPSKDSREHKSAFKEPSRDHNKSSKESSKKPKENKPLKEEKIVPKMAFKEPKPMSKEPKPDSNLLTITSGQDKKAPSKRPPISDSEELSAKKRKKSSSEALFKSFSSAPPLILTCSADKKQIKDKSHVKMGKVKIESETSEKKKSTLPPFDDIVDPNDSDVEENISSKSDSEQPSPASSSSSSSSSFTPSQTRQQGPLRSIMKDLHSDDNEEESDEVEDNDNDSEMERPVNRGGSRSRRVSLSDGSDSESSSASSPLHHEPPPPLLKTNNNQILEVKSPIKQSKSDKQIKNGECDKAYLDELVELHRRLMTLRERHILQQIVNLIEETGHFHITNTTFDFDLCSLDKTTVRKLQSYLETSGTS
FGF22 binding = binders of recombinant human FGF22 by thermal shift | SYPRO orange fluorescence; percent of sucrose octasulfate shift, DMSO zero | calls only at 9.99 µM | hit rate 1.5% among 340,000;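 active = melting point raised past a set limit in the mean and every replicate; inconclusive = no clear call; three in four hits are not shown here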
Target sequence (Q9HCT0 whole entry, looked up): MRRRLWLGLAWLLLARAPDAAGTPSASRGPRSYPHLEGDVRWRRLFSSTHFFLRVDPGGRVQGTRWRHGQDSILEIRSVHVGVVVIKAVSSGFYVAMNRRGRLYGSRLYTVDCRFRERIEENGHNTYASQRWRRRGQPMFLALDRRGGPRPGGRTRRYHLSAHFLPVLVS
UCH37 inh = blocks the human deubiquitinase UCH37; Q9Y5K5; purified proteasome/UCH37, Ub-AMC cleavage fluorescence; inhibition, % (test concentration not listed); hit rate 0.33% among 330,000; AID 588478;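 active = mean of two replicates above 20%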;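 note: 0% = compound-free wells with enzyme and 100% = wells lacking proteasome; stock transfer was 100 nL into about 20 µL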
Target sequence (Q9Y5K5 whole entry, looked up): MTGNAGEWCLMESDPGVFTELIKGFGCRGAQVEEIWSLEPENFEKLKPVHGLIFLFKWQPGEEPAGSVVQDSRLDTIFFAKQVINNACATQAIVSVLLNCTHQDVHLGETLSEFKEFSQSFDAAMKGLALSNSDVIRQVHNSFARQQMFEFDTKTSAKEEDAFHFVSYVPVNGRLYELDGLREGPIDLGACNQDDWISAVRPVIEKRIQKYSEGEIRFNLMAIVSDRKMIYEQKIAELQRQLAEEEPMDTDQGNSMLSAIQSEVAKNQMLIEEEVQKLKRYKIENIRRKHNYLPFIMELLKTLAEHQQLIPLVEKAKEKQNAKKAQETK
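Assay system: Proteasome-bound UCH37. Buffer or medium: pH 7.4 Tris-HCl (50 mM) with ovalbumin, ATP-MgCl2, DTT. Incubation: 30 min preincubation with enzyme, 25 min cleavage at room temperature. Measured by: fluorescence, ex 355 nm, em 460 nm. Read-out basis: percent inhibition. Control set: wells without proteasome as full block, compound-free enzyme plus substrate as uninhibited.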
Beta cell apopt = blocks beta cell apoptosis | INS-1E cytokine-induced death, ATP luminescence, 48 h; percent of positive-control rescue, neutral wells zero | protection from apoptosis, % (concentration not given with the values) | hit rate 0.8% among 300,000 | AID 435005;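 active = all replicates at 75% or more, or half of them and the mean; inconclusive = half reach 75% but not the mean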;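 note: 0% = cytokine-treated negative control wells and 100% = positive control rescue; higher means more ATP so stronger rescue from cytokine killing; wells of about 40 µL received 100 nL stock; the first replicate is given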
rRNA inh HTS OD600 = second read-out of rRNA inh HTS, no call of its own (marks repeat the call); OD600 change, %; measured here: OD600 growth;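 optical density of the mix in the first replicate; 0 = DMSO median and -100 = no signal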
rRNA inh HTS RFP = recorded beside rRNA inh HTS, whose call it bears; RFP signal change, %; measured here: RFP humanized mutant strains;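 first replicate; 0 = DMSO median and -100 = no signal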
* = called active by the depositor; i = inactive; ? = inconclusive; . = no result given. Not all compounds are listed (hit frequency here may not be typical).

SMILES | Bfl-1 A1 inh | rRNA inh HTS | rRNA inh HTS OD600 | rRNA inh HTS RFP | E coli growth | T cruzi repl | AF4-AF9 inh | FGF22 binding | UCH37 inh | Beta cell apopt
O=C1C=C(NCc2ccccc2)c2ccccc2C1=O | . | -11 | 0 | 3.7 | 0.47* | 39 | 0.5 | . | 53* | .
COc1ccc(N(Cc2cc3ccc(C)cc3[nH]c2=O)S(=O)(=O)c2ccccc2)cc1 | -0.2 | . | . | . | 0.77 | 15 | . | . | 2.1 | -2
CC1=CC2=NC(=O)CC(C)(C(=O)N(CC(=O)NC3CCCC3)Cc3ccc(Cl)cc3)N2C=C1 (centres undefined) | 0.0 | 2 | 8 | -1.3 | 0.67 | -4 | 3.3 | i | -204 | 6
COc1cccc(C2N(c3ccccn3)C(=O)C3CCCN32)c1OC (centres undefined) | 1.4 | . | . | . | 0.64 | 3 | . | . | 1.9 | -9
CCCc1c(C(=O)Nc2ccc(C(F)(F)F)cc2)cnn1-c1ccccc1 | 0.5 | 10 | 4 | -1.2 | 0.66 | 20 | -2.2 | i | 2.7 | 19
Cn1c(=NC(=O)CSCC(=O)N2CCCC2)sc2ccccc21 | -1.6 | . | . | . | 0.72 | -3 | . | . | 5.2 | -3
COC(=O)c1scc(S(=O)(=O)c2ccccc2)c1N | -1.5 | 13 | 10 | 3.2 | 0.68 | -22 | -1.1 | . | 1.9 | -6
Cc1ccc(OCCN(C)C(=O)C2CCC(=O)N(CCCN3CCCC3=O)C2)cc1 (centres undefined) | -0.8 | 3 | 9 | -3.7 | 0.69 | -1 | -5.8 | i | 4.3 | -1
OC(COCc1ccccc1)CN1CCN(Cc2ccc3c(c2)OCO3)CC1 (centres undefined) | -0.2 | 8 | 8 | -0.7 | . | 21 | 0.6 | i | 2.9 | -2
Cc1ccsc1/C=N/NC(=O)CN1CCN(Cc2ccccc2)CC1 | -0.4 | . | . | . | . | 6 | 1.5 | i | . | -2
O=C(C1CC1)N1CCC(C(O)(c2ccccc2)c2ccccc2)CC1 | -0.5 | . | . | . | 0.68 | 2 | . | . | -1.8 | -1
O=C(CN(Cc1ccccc1)C(=O)CCC(=O)Nc1nccs1)NCc1ccco1 | 0.9 | . | . | . | 0.77 | 0 | . | . | 2.6 | .
Cc1ccc(N=C(NO)c2nonc2N)c(C)c1 | 1.2 | . | . | . | 0.65 | -7 | . | . | 5.4 | .
CCCn1c(=O)c(C(=O)Nc2ncccc2C)c(O)c2ccccc21 | 0.2 | -58 | -65 | -22 | 0.66 | -15 | -2.0 | i | 2.1 | 0
COCCN(C(=O)CSc1nc2ccccc2c(=O)n1C(C)COC)c1c(N)n(Cc2ccccc2)c(=O)[nH]c1=O (centres undefined) | ? | 8 | 6 | -1.5 | 0.69 | 3 | -2.3 | i | 12 | -1
Cc1cc(C)n(CC(=O)NNC(=O)c2cncc(Br)c2)n1 | -0.2 | 8 | -2 | 1.0 | 0.73 | . | -8.4 | i | 6.6 | 1
Cc1ccccc1C(OCC(O)CN1CCN(CCO)CC1)c1ccccc1 (centres undefined) | -0.3 | 6 | 4 | 0.2 | 0.65 | -6 | 2.6 | i | 3.8 | -3
NC(=O)CC(NC(=O)c1ccc(Br)cc1)c1ccc(N2CCN(c3ccccc3)CC2)c([N+](=O)[O-])c1 (centres undefined) | -0.6 | 16 | 18 | -6.4 | 0.68 | 5 | -3.2 | i | 0.7 | .
COc1ccc(N/C(N)=N/c2nc(CSc3ccc(Cl)cc3)cc(=O)[nH]2)cc1 | 0.0 | . | . | . | 0.72 | -2 | . | . | -3.2 | 0
CCOC(=O)Cn1nc(-c2ccccc2)c2cnc3ccc(C)cc3c21 | -0.2 | -1 | 2 | 4.0 | 0.69 | 24 | -4.0 | i | 4.2 | 18
O=S1(=O)N[C@@H](Cc2ccccc2)COc2cc(Br)ccc21 | . | -1 | -19 | -2.8 | 0.68 | . | -0.7 | i | -1.2 | .
O=C(c1ccco1)N1CCN(C(=O)c2cc(-c3ccncc3)nc3ccc(Br)cc23)CC1 | 1.2 | . | . | . | 0.79 | 56* | . | . | 3.0 | 3
CCN1CCN(c2ccc(NC(=O)c3ccc([N+](=O)[O-])o3)cc2Cl)CC1 | . | -38* | -18* | -13* | 0.54 | 91* | 1.5 | i | 8.5 | .
CCc1cc2c(=O)c(-c3cnn(-c4ccccc4)c3)c(C)oc2cc1OCC(=O)Nc1cccc(C)c1 | 7.9* | 8 | 13 | 6.7 | 0.7 | -8 | 1.8 | i | 1.2 | -4
O=C1c2ccccc2CCc2ccc(Br)cc21 | -3.0 | -15 | -22 | -2.7 | 0.65 | . | . | i | 3.4 | 1
O=C(CC(Sc1ccccc1)c1cccs1)c1ccco1 (centres undefined) | -0.9 | . | . | . | 0.62 | -2 | . | . | 1.8 | 0
CCOC(=O)/C(C#N)=C/c1c(N2CCN(CC)CC2)nc2c(C)cccn2c1=O | 0.1 | 13 | 12 | 0.4 | 0.67 | 14 | 6.9 | i | 9.0 | -2
COc1cccc2c(=O)cc(C)n(CC(=O)Nc3ccc(Br)cc3)c12 | 0.1 | . | . | . | 0.63 | -21 | -4.4 | i | -1.5 | 5
O=C(O)CCCCCN1C(=O)/C(=C/c2cn(-c3ccccc3)nc2-c2cccs2)SC1=S | . | 10 | 22 | 0.6 | 0.68 | . | -9.8 | i | 14 | .
COc1ccc(C(=O)Nc2ccc(C3CC3(Cl)Cl)cc2)cc1 (centres undefined) | -0.9 | 13 | 6 | 0.7 | 0.74 | 16 | -2.9 | i | -1.4 | 1

Sorted by molecular weight (low to high): some entries from above.
SMILES | Bfl-1 A1 inh | rRNA inh HTS | rRNA inh HTS OD600 | rRNA inh HTS RFP | E coli growth | T cruzi repl | AF4-AF9 inh | FGF22 binding | UCH37 inh | Beta cell apopt
O=C1c2ccccc2CCc2ccc(Br)cc21 | -3.0 | -15 | -22 | -2.7 | 0.65 | . | . | i | 3.4 | 1
CCOC(=O)Cn1nc(-c2ccccc2)c2cnc3ccc(C)cc3c21 | -0.2 | -1 | 2 | 4.0 | 0.69 | 24 | -4.0 | i | 4.2 | 18
O=C(O)CCCCCN1C(=O)/C(=C/c2cn(-c3ccccc3)nc2-c2cccs2)SC1=S | . | 10 | 22 | 0.6 | 0.68 | . | -9.8 | i | 14 | .

More structures.
SMILES | Bfl-1 A1 inh | rRNA inh HTS | rRNA inh HTS OD600 | rRNA inh HTS RFP | E coli growth | T cruzi repl | AF4-AF9 inh | FGF22 binding | UCH37 inh | Beta cell apopt
Cc1nc2c(ncn2-c2ccccc2)c(=O)n1NC(=O)CN1CCN(C)CC1 | 0.5 | 14 | 8 | 5.8 | 0.65 | 2 | -4.2 | i | 0.2 | 1
Cn1nc(C(=O)NCc2ccccc2Cl)c2c1-c1ccccc1S(=O)(=O)C2 | 0.4 | -3 | -1 | 2.1 | 0.68 | 14 | 3.9 | i | 4.2 | 6
COc1cccc(NCc2nnc(SCC(=O)N(C)C3CCS(=O)(=O)C3)n2C2CCCCC2)c1 (centres undefined) | 0.1 | -2 | 4 | -0.7 | 0.71 | -7 | -0.8 | i | -0.6 | 3
CC(=O)c1c(C)[nH]c(C(=O)NCCc2cccc(C)c2)c1C | 1.2 | . | . | . | 0.75 | -7 | . | . | 4.8 | 3
COc1ccccc1CNC(=O)CN1C(=O)N(C)C2(CCCCC2)C1=O | 0.8 | -8 | 1 | -2.9 | 0.66 | . | 1.3 | i | 1.7 | 0
COc1ccc(C2C3=C(CCCC3=O)N(CC(=O)O)C3=C2C(=O)CCC3)cc1Cl | -0.2 | 10 | 7 | -1.9 | 0.7 | -3 | -8.1 | i | i | -7
CC(C)C[C@H](NC(=O)N1CCn2c1nc1ccccc12)C(=O)N[C@@H](Cc1ccccc1)C(=O)O | 1.0 | 6 | 14 | -3.5 | 0.71 | -11 | -2.0 | i | 1.7 | -3
O=C(c1cnccn1)N1CCN(S(=O)(=O)c2ccc3ccccc3c2)CC1 | -0.3 | . | . | . | 0.7 | -6 | . | . | 3.3 | -6
CCN(CC)CCNc1cc(C)c(C#N)c2nc3ccccc3n12 | 0.4 | -13 | -6 | -4.8 | . | 57* | -1.3 | i | . | 5
O=C(CSc1ccc2c(c1)OCCO2)NCc1ccccc1 | 1.0 | 22 | 23 | 0.2 | 0.7 | -6 | -1.5 | i | 5.1 | -5
Cc1cccc(N(C)Cc2nnc(-c3cccc(Br)c3)o2)c1 | 0.3 | 2 | 3 | 0.2 | 0.66 | -2 | -4.6 | i | -1.4 | -3
C#CCNC(=O)C1=C[C@H](C)C[C@H](OCc2ccc(CO)cc2)O1 | 0.6 | 0 | -4 | 6.2 | . | -3 | -2.4 | i | -1.2 | .
c1ccc(COc2ccc(CNn3cnnc3)cc2)cc1 | -0.7 | 3 | 1 | 1.5 | 0.66 | -4 | -0.2 | i | 0.1 | -29
CCN(CC(=O)Nc1c(F)cccc1F)C(=O)CNC(=O)c1sc2ccccc2c1Cl | -0.4 | 10 | 10 | 2.7 | 0.7 | . | -0.8 | i | 0.1 | -3
Cc1csc2ncc(C(=O)Nc3ccc4c(c3)OCCO4)c(=O)n12 | -2.3 | 11 | 8 | 0.7 | 0.72 | -1 | -6.5 | i | -36 | 3
C=CCn1c(SCc2ccc(C(=O)OC)cc2)nnc1-c1sc(N)nc1C | -1.3 | . | . | . | 0.7 | 4 | . | . | 0.9 | 0
CCOCCCNC(=O)C1CC(=O)N(CCc2ccccc2)C1 (centres undefined) | -0.8 | 16 | 10 | -0.3 | 0.67 | -12 | 0.3 | i | 0.3 | -4
O=C(Nc1ccccc1F)c1cc(S(=O)(=O)N2CCCCC2)cs1 | -0.4 | . | . | . | 0.7 | -13 | . | . | 1.6 | -9
COc1ccc(CCNC(=O)C2CCN(S(=O)(=O)c3ccc(OC)cc3)CC2)cc1 | 0.1 | 10 | 8 | 1.1 | 0.66 | -15 | -1.9 | i | 0.4 | 1
CCN(CC)CCN1C(=O)c2ccccc2NC1c1cccc(F)c1 (centres undefined) | 0.3 | . | . | . | 0.7 | -4 | . | . | -332 | .
CCN(CC)S(=O)(=O)c1ccc2c(c1)c(=O)c(C(=O)N1CCN(c3ccccc3)CC1)cn2C | -0.1 | . | . | . | 0.68 | 4 | . | . | 3.7 | 0
COc1ccccc1NS(=O)(=O)c1cccc(NC(=S)NCCN2CCOCC2)c1 | ? | -3 | 2 | -1.5 | 0.67 | -11 | -36 | i | 4.8 | -2

Compound profiles, from the list above.
COc1ccccc1NS(=O)(=O)c1cccc(NC(=S)NCCN2CCOCC2)c1 reads Bfl-1 A1 inh: ?; rRNA inh HTS: -3; rRNA inh HTS OD600: 2; rRNA inh HTS RFP: -1.5; E coli growth: 0.67; T cruzi repl: -11; AF4-AF9 inh: -36; FGF22 binding: i; UCH37 inh: 4.8; Beta cell apopt: -2
CCN(CC)CCN1C(=O)c2ccccc2NC1c1cccc(F)c1 (centres undefined) reads Bfl-1 A1 inh: 0.3; rRNA inh HTS: .; rRNA inh HTS OD600: .; rRNA inh HTS RFP: .; E coli growth: 0.7; T cruzi repl: -4; AF4-AF9 inh: .; FGF22 binding: .; UCH37 inh: -332; Beta cell apopt: .
